High-throughput results (PubChem BioAssay)
Myeloid diff MLP – induction of myeloid progenitor differentiation, primary screen, cell-based, flow cytometry, MLPCN library | ER-HoxA9 myeloid progenitors, lysozyme-GFP differentiation | calls only at 10 µM | 360,000 compounds, 1% hits | AID 624256, 2012;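 active = normalized GFP-positive differentiation at or above the plate's own cutoff, the solvent-only control mean plus 3 SD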;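 also: cells exposed to compound for four days before flow analysis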
KOR agonists – KOR agonists, beta-arrestin recruitment, primary screen, cell-based, luminescence, uHTS (AID 1777); KOR beta-arrestin recruitment, luminescence; higher % means a stronger effect; one-dose activation, % at 10 µM; EC50 in µM for titrated hits; 280,000 compounds, 0.02% hits; in the data active = activation above about 50%, passing the limit was not always enough; also: a part of the inactive calls stands beside numbers as strong as those of hits
Siah-1 displacement – Siah-1 peptide-binding antagonists, primary screen, biochemical, fluorescence polarization, rhodamine-plectin, uHTS (AID 1817). E3 ubiquitin-protein ligase SIAH1 (Homo sapiens). Siah-1 / rhodamine-plectin peptide fluorescence polarization; higher % means a stronger effect. one-dose displacement, % at 20 µM; IC50 in µM for titrated hits. 290,000 compounds, 0.02% hits;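 active = displacement of at least 50% at 20 µM, with a fluorescence ratio check between 0.3 and a set limit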;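 also: plate controls were Siah plus tracer with DMSO for no effect and tracer alone without Siah for full effect; strong numbers were not always called active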
HIV fusion peptide – inhibitors of HIV fusion peptide binding, primary screen, biochemical, uHTS, fluorescence dequenching (AID 1986) | cell-free peptide binding, fluorescence dequenching, 30 min; higher % means a stronger effect | inhibition, % at 20 µM; hits with a dose series show IC50 in µM | 290,000 compounds, 0.3% hits; in the data active = inhibition mostly above about 52%, no sharp cut-off; inactive = mostly below about 76%; also: some results filed as inactive read as strong as hits
PhoP inhibition – inhibitors of PhoP regulon expression, primary screen, Salmonella Typhimurium, GFP reporter (AID 1863); S. Typhimurium PhoP-regulated promoter GFP reporter, 4 h; higher % means a stronger effect; one-dose inhibition, % at 50 µM; IC50 in µM for titrated hits; 300,000 compounds, 0.16% hits;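 active = inhibition over 29.93%, a cutoff 3 SD above the screen mean, later confirmed by dose response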;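 also: 0% = low Mg2+ inducing control and 100% = high Mg2+ repressing control; strong numbers were not always called active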
LYP inhibition – inhibitors of LYP phosphatase, biochemical, fluorescence intensity, uHTS (AID 1779). Tyrosine-protein phosphatase non-receptor type 22 (Homo sapiens). recombinant LYP phosphatase, fluorescence intensity; higher % means a stronger effect. inhibition, % at 11.5 µM, or IC50 in µM where a hit was titrated. 290,000 compounds, 0.054% hits; in the data active = inhibition above about 50%;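 also: plate controls were vehicle with enzyme for no effect and no enzyme for full effect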
Myeloid diff MLP GFP+ MAC1+ % – second read-out of Myeloid diff MLP, no call of its own (marks repeat the call); GFP+ MAC1+ double positive, %; measured here: differentiation confirmed by MAC1 staining
* = called active by the depositor; i = inactive. These rows are one share of the data (hit frequency here may not be typical).

Below each SMILES: Myeloid diff MLP | Myeloid diff MLP GFP+ MAC1+ % | KOR agonists | Siah-1 displacement | HIV fusion peptide | PhoP inhibition | LYP inhibition
#1 CCOC(=O)c1cnc2c(N=Nc3ccccc3)c(N)nn2c1N
 : i | 0.5 | 1.1% | 5% | -0.1% | -3% | 0%
#2 CC(=O)C1C(c2cccc(F)c2)NC(=O)NC1(O)C(F)(F)F (stereo not given)
 : i | 0.4 | 13% | 3% | 1.6% | -8% | -10%
#3 COc1ccc(C2CC(=O)c3cnc(NC(=O)c4cccc(OC)c4)nc3C2)cc1 (stereo not given)
 : i | 1.4 | -5.0% | -6% | 5.8% | -9% | -3%
#4 CCCN(c1nc(C)cc(OC)n1)S(=O)(=O)c1ccccc1
 : i | 0.7 | 2.6% | 1% | -1.3% | 13% | -4%
#5 O=C(Nc1ccc2c(c1)OCO2)c1ccc[n+]([O-])c1
 : i | 2.0 | 2.0% | 3% | 2.2% | 7% | 0%
#6 Cc1nnc(SCC(=O)NCc2cccs2)[nH]c1=O
 : i | 0.7 | 2.2% | 3% | 4.0% | -5% | -10%
#7 COC(=O)c1cc2n(n1)CCN(Cc1ccc(OC)cc1)C2=O
 : i | 0.7 | -2.9% | -2% | 2.1% | -2% | -10%
#8 Cc1cc2nc(-c3ccc(SCc4ccc(C#N)cc4)nc3)[nH]c2cc1C
 : i | 24 | 3.3% | 3% | 8.6% | 1% | 9%
#9 CC(C)NC(=O)CC(=O)N/N=C/c1ccc(Br)cc1
 : i | 0.9 | 4.0% | -4% | -1.0% | 26% | -10%
#10 C=CCn1c(CSCc2ccccc2)nnc1SCC(=O)NCc1ccccc1
 : i | 0.9 | 1.1% | 2% | -2.4% | 2% | -4%
#11 CC12CCC(C(=O)N(NC(=O)c3ccc(O)cc3)C1=O)C2(C)C (stereo not given)
 : i | 10 | 14% | -3% | -2.0% | 9% | -6%
#12 CN(/C=C/C(=O)C(F)(F)F)Cc1ccccc1
 : i | 1.5 | 1.8% | 2% | 1.4% | -10% | 4%
#13 Cc1ccc(-c2nnc(SCC(=O)NNC(=O)COc3cccc(C)c3)n2C)cc1
 : i | 9.9 | 1.4% | 1% | 1.1% | -7% | -4%
#14 Clc1ccc(CSc2nnc(-c3cccnc3)o2)cc1
 : i | 0.7 | 3.7% | -1% | 0.2% | 4% | 0%
#15 COC(/C=C/Nc1ccc(Br)cc1)=C(C#N)C#N
 : i | 1.2 | -2.6% | 5% | -3.2% | 2% | -7%

Laid out differently: results already given.
nr	SMILES	Myeloid diff MLP	Myeloid diff MLP GFP+ MAC1+ %	KOR agonists	Siah-1 displacement	HIV fusion peptide	PhoP inhibition	LYP inhibition
7	COC(=O)c1cc2n(n1)CCN(Cc1ccc(OC)cc1)C2=O	i	0.7	-2.9%	-2%	2.1%	-2%	-10%
8	Cc1cc2nc(-c3ccc(SCc4ccc(C#N)cc4)nc3)[nH]c2cc1C	i	24	3.3%	3%	8.6%	1%	9%

Of the compounds above, these have a carbonyl joined to an NH by a bond outside any ring.
Below each SMILES: Myeloid diff MLP | Myeloid diff MLP GFP+ MAC1+ % | KOR agonists | Siah-1 displacement | HIV fusion peptide | PhoP inhibition | LYP inhibition
#3 COc1ccc(C2CC(=O)c3cnc(NC(=O)c4cccc(OC)c4)nc3C2)cc1 (stereo not given)
 : i | 1.4 | -5.0% | -6% | 5.8% | -9% | -3%
#5 O=C(Nc1ccc2c(c1)OCO2)c1ccc[n+]([O-])c1
 : i | 2.0 | 2.0% | 3% | 2.2% | 7% | 0%
#6 Cc1nnc(SCC(=O)NCc2cccs2)[nH]c1=O
 : i | 0.7 | 2.2% | 3% | 4.0% | -5% | -10%
#9 CC(C)NC(=O)CC(=O)N/N=C/c1ccc(Br)cc1
 : i | 0.9 | 4.0% | -4% | -1.0% | 26% | -10%
#10 C=CCn1c(CSCc2ccccc2)nnc1SCC(=O)NCc1ccccc1
 : i | 0.9 | 1.1% | 2% | -2.4% | 2% | -4%
#11 CC12CCC(C(=O)N(NC(=O)c3ccc(O)cc3)C1=O)C2(C)C (stereo not given)
 : i | 10 | 14% | -3% | -2.0% | 9% | -6%
#13 Cc1ccc(-c2nnc(SCC(=O)NNC(=O)COc3cccc(C)c3)n2C)cc1
 : i | 9.9 | 1.4% | 1% | 1.1% | -7% | -4%
